SARS PLP yeast – SARS-CoV PLP inhibition in yeast | actives 0.19% (n = 330,000) | Potency, µM (titrated, usually from 32.9 µM), for the others: top-dose activity, positive = growth rescue | S. cerevisiae expressing SARS-CoV PLpro, growth rescue; control for the full effect not named in the record; active means well fitted rising curve with a large enough effect; inconclusive means small, poorly fitted or top-dose-only effect; inactive means no such curve, though single readings can be large or run the other way; also: 0% is about no effect; nearly all actives have a fitted effect of over 55% in size; growth read by luminescence after 48 h
Cruzain inh Det – inhibitors of Trypanosoma cruzi cruzain with detergent | P25779 | purified cruzain, Z-FR-AMC fluorescence, 0.01% Triton | Potency, µM, without a hit: max response, negative = inhibition, hits mostly inhibitors | actives 0.43% (n = 200,000);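 also: plate controls were neutral wells for no effect and buffer without enzyme for full effect; nearly all actives have a fitted effect of over 40% in size; top concentration of the series not given in the record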
Target sequence (P25779 123-467 limits assumed): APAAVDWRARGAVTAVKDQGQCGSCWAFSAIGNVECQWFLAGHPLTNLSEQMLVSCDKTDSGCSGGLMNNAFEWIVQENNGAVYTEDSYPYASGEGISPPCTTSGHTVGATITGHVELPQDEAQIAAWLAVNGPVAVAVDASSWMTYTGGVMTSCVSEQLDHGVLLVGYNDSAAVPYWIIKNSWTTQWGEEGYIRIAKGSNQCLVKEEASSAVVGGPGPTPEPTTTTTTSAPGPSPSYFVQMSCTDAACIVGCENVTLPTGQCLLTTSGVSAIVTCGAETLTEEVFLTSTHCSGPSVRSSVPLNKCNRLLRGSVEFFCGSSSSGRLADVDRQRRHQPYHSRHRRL
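Detergent-containing arm of a paired screen for aggregation-based inhibition: 0.01% Triton X-100 present. Cruzain at 1.5 nM cleaved 2 uM Z-FR-AMC at pH 5.5 with 5 mM DTT; AMC fluorescence gain over 60 s measured activity.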
LASV entry inh – blocks Lassa virus binding to or entry into cells | Lassa virus pseudotype entry inhibition, cell reporter; control for the full effect not named in the record | Potency, µM (titrated, usually from 37.9 µM), without a hit: at the highest dose activity change, negative = inhibition, hits mostly inhibitors | actives 1.2% (n = 300,000); active means well fitted inhibition curve with a large enough effect; inconclusive means small, poorly fitted or top-dose-only effect, or effect the other way; inactive means flat fitted curve, though single readings scatter; tested in HEK293 cells; also: % is scaled to controls: 0 for no effect and ±100 for the full control effect; nearly all actives have a fitted effect of over 50% in size; luciferase read-out
Marburg entry inh – inhibitors of Marburg virus binding or cell entry; Marburg virus pseudotyped entry inhibition, cell reporter; control for the full effect not named in the record; about a third of the inactives were read at about 46 µM; actives 1.8% (n = 300,000); Potency, µM (doses to about 37.8 µM), for the others: top-dose activity change, negative = inhibition, actives largely listed as inhibitors; AID 540276; active = well fitted inhibition curve with a large enough effect; inconclusive = small, poorly fitted or top-dose-only effect, or effect the other way; inactive = flat fitted curve, though single readings scatter; tested in HEK293 cells; about a fifth of its hits are not listed in these tables; also: % is scaled to controls: 0 for no effect and ±100 for the full control effect; luciferase read-out
NS1 function inh – inhibitors of influenza NS1 protein function. S. cerevisiae slowed by influenza A NS1, growth recovery by OD600. Potency, µM (top dose mostly 46.1 µM), inactives show at the highest dose activity, positive = more growth. actives 0.4% (n = 270,000); active means well fitted rising curve with a large enough effect; inconclusive means small, poorly fitted or top-dose-only effect; inactive means no such curve, though single readings can be large or run the other way; also: nearly all actives have a fitted effect of over 50% in size
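Read-out: OD600 growth recovery of NS1-expressing budding yeast. Cells grown overnight at 30C in -URA glucose medium, washed, resuspended and diluted 1:100 in 2% galactose assay medium, pH 6.0. Same strain lacking NS1 served as positive control.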
RE007 growth inh – less growth of the S. pombe RE007 Vpr strain; S. pombe RE007 Vpr strain, BacTiter-Glo ATP luminescence, 24 h; control for the full effect not named in the record; actives 0.21% (n = 360,000); Potency, µM (top dose mostly 92.2 µM), for the others: at the highest dose activity change, negative = less growth; active = well fitted falling curve with a large enough effect; inconclusive = small, poorly fitted or top-dose-only effect; inactive = no such curve, though single readings can be large or run the other way;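 also: % is scaled to controls: 0 for no effect and ±100 for the full control effect; nearly all actives have a fitted effect of over 50% in size; the assay follows cell death caused by Vpr and the record does not say whether a fall means rescue or toxicity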
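Fission yeast strain RE007, carrying one chromosomally integrated HIV-1 vpr copy, was seeded at OD 0.01 in PMG+AL medium with 23 nL pinned compound. After 24 h at 30 °C and 99% humidity, viability was read by BacTiter-Glo luminescence.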
2A StopGo – FMDV 2A StopGo reporter, luciferase signal | human cells with a luciferase reporter of 2A StopGo recoding; control for the full effect not named in the record | AID 1159524 | Potency, µM (series often up to 57.9 µM), for the others: at the top dose signal change, negative = less light | actives 1.2% (n = 410,000); active = well fitted falling curve with a large enough effect; inconclusive = small, poorly fitted or top-dose-only effect; inactive = no such curve, though single readings can be large or run the other way; tested in HEK293T cells; also: % is scaled to controls: 0 for no effect and ±100 for the full control effect; nearly all actives have a fitted effect of over 45% in size; luciferase light after 4 h
Cruzain noTriton – inhibitors of Trypanosoma cruzi cruzain without detergent | Potency, µM, inactives show max response, negative = inhibition, most hits filed as inhibitors | AID 1476 | P25779 | actives 2.3% (n = 200,000) | purified cruzain, Z-FR-AMC fluorescence, no detergent;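 also: plate controls were enzyme without inhibitor for no effect and buffer without enzyme for full effect; nearly all actives have a fitted effect of over 40% in size; top concentration of the series not given in the record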
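Purified cruzain at 1.5 nM, pre-incubated 15 min with compound at room temperature in 100 mM sodium acetate pH 5.5, 5 mM DTT, 0.00005% Triton X-100. Reaction started with 2 uM Z-FR-AMC; AMC fluorescence increase over 60 s gives rate.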
Starred values were filed as active, the others as inactive; ? = inconclusive; / = no result given; & = joins results of further samples; [ ] = another dose, or the depositor's remark. Unless noted, calls follow the shape of the dose curve; as a rule, active = well fitted curve in the direction sought with a large enough effect; inconclusive = small, poorly fitted or top-dose-only effect, or another doubt; inactive = no such curve, though single readings can be large; an effect the other way counts as inactive or inconclusive. Potency is read from the fitted curve at half-maximal effect.

SMILES,SARS PLP yeast,Cruzain inh Det,LASV entry inh,Marburg entry inh,NS1 function inh,RE007 growth inh,2A StopGo,Cruzain noTriton
CCOC(=O)N1CCC2(CC1)C(C#N)=C(N)Oc1n[nH]c(C)c12,3%,3.4%,-4%,28%,4%,-2%,-12%,1%
COC(=O)C(Cc1c[nH]c2ccccc12)NC(=O)c1ccccc1Br (stereo not given),-8%,/,/,/,-13%,-17%,40%[activator],/
CC1CCN(CCOCCOc2ccc(Br)cc2Cl)CC1,-27%,-0.6%,?,?,-23%,1%,-19%,-6%
Cc1ccc(-c2noc(CSc3nnc(C)n3-c3ccc(C)cc3)n2)cc1,/,-8.9%,?,-17%[46.1 µM],/,/,0%,?
O=S(=O)(c1ccccc1)c1nnn2c1nc(NC1CCN(Cc3ccccc3)CC1)c1cc(Cl)ccc12,-6%,/,/,/,11%,-18%,-11%,/
O=C1NCCc2c1[nH]c1ccccc21,-1%&4%,2.9%,9%,-14%&-14%&-14%,2%&-10%,10%,3%,-7%
CCCCOc1ccccc1-c1cc(C(=O)O)[nH]n1,-5%,4.5%,-2%,?,8%,13%,-11%,-8%
CN1CCN(C(=S)Nc2cc(S(=O)(=O)N3CCOCC3)ccc2Cl)CC1,-2%,/,/,-12%[46.1 µM],/,-4%,-11%,/
CCOC(=O)C(Cc1c[nH]c2ccccc12)NC(=O)COc1ccc(CC)cc1 (stereo not given),/,-9.8%,?,/,/,/,-5%,20%
Oc1ccc(-c2cccc(-c3ccc(O)cc3)n2)cc1,12%,-11%,1%,-11%[46.1 µM],-6%,5%,81%[activator],-2%
O=C1CC2CC1C(C(=O)O)C2C(=O)O (stereo not given),/,/,13%,?,/,1%,-18%,/
Cc1ccc(NC(=O)CN(C)C(=O)C2COc3ccccc3O2)cc1 (stereo not given),-1%,/,-2%,-2%,/,-18%,17%,/
COc1cccc(CNS(=O)(=O)c2ccc(N3CCCC3=O)cc2)c1,0%,/,?,?,2%,13%,-9%,/
COc1ccc(OC)c(S(=O)(=O)Nc2cc(C(=O)O)ccc2N2CC3CC(C2)c2cccc(=O)n2C3)c1 (stereo not given),1%,/,7%,5%,/,-6%,-11%,/
CC(C)N(Cc1cc2ccccc2[nH]c1=O)C(=O)c1ccco1,0%,/,6%[46.1 µM],-3%[46.1 µM],/,-12%,10%,/
O=C(c1ccco1)N1CCN(C(=O)c2cccs2)CC1,-13%,0.2%,11%,3%,7%,4%,/,-7%
Cc1ccc(-n2nnnc2SCC(=O)Nc2ccc3c(c2)OCCO3)cc1C,-5%,-5.0%,8%,?,2%,0%,-4%,-5%
O=C(Nc1ccncc1)Nc1ccncc1,0%,/,11%,0%[46.1 µM],/,14%,-3%,/
CC1CCCC(C)N1C(=O)C1CC(c2ccc(F)cc2)=NO1 (stereo not given),2%,3.2%,1%,1%,-4%,12%,45%[activator],-7%
C=CCOc1cccc(C2/C(=C(\O)c3ccc4c(c3)OCCO4)C(=O)C(=O)N2CCN2CCOCC2)c1 (stereo not given),-2%,/,15%[46.1 µM],-3%[46.1 µM],-14%,-10%,4%,/
CCCCN=C[C@]12CCC(O)CC1(O)CCC1[C@@H]2CC[C@]2(C)[C@H](C3C=CC(=O)O3)CCC12O (stereo not given in full),0%,/,/,3.5µM*,1%,4%,-24%,/
Nc1nnc(COc2ccccc2)s1,26%,-0.3%,?,-2%,-4%,25%,-5%,-6%
c1coc(CN=C2NC(=NCc3ccco3)c3ccccc32)c1,?,-5.4%,?,?,-47%,-6%,/,-7%
Cn1nnnc1SCc1nc2scc(-c3ccc(Cl)cc3)c2c(=O)[nH]1,-1%,/,/,/,8%,10%,-19%,/
CCN1CCN(c2csc3ccc(C)cc3c2=O)CC1,/,-4.1%,9%[46.1 µM],/,/,/,29%,-3%
CNC(=S)N1N=C(c2cccs2)CC1c1ccc(F)cc1 (stereo not given),3%,/,/,/,-2%,29%,-13%,/
CC(C)Cc1nnc(NC(=O)c2cc(S(=O)(=O)N(C)C)ccc2N2CCCC2)s1,22%,/,-3%,-12%,16%,20%,2%,/
COc1ccc2c(c1)Cc1sc(NC(=O)c3ccco3)nc1-2,-9%,-11%,?,-18%,-2%,-12%,-3%,5%
O=C1OCCN1c1c(-c2ccccc2)c(-c2cccs2)nc2c(-c3ccccc3)cccc12,5%,/,/,/,10%,-8%,-15%,/
Cc1ccc(C(C)C)c(OCC(=O)Nc2ccc(Cl)cn2)c1,-9%,-3.2%,?,?,-30%,-18%,?,-6%
COc1ccccc1OCCNc1cc(N2CCCCC2)ccc1[N+](=O)[O-],0%,-6.4%,?,-2%,5%,2%,-23%,2%
CC(=O)c1ccc(NS(=O)(=O)Cc2ccccc2)cc1,0%,0.4%,14%,3%,1%,-4%,/,10%
COCCNC(=O)c1cccc(NC(=O)C2=C(C)OCCS2)c1,1%,/,-3%[46.1 µM],6%[46.1 µM],3%,7%,-4%,/
COC(=O)c1ccc(NC(=O)CCC(=O)c2ccc(F)cc2)cc1,-1%,/,/,/,-5%,14%,6%,/
Nc1ncnc(Nc2ccc(F)c(Cl)c2)n1,-2%,/,/,/,2%,0%,37%[activator],/
Cc1nc(CN(C)C(=O)c2ccccc2OC2CCN(S(C)(=O)=O)CC2)cs1,1%,/,0%,-10%[46.1 µM],-2%,-10%,-2%,/
CSc1ccc(C2C3(C#N)C(N)=NC4(OCCO4)C23C#N)cc1 (stereo not given),-2%,-0.6%,-6%,9%,1%,-6%,-14%,-4%
CC(C)OCCCn1c(SCC(=O)N2CCCC2=O)nc2ccccc2c1=O,16%,/,-3%,-1%,/,-5%,-4%,/
COc1ccc(OC)c(NC(=O)C(C#N)=Cc2ccco2)c1,/,/,0%[46.1 µM],-2%[46.1 µM],/,1%,19%,/
NC(=O)SCC(=O)Nc1cccc(Cl)c1,2%,-4.1%,?,0%,1%,6%,-28%,-15%
N#Cc1nc(-c2ccco2)oc1N1CCN(C(c2ccccc2)c2ccccc2)CC1,5%,-13%,3%,-18%,-56%,6%,/,?
CCCCC(=O)Nc1sc2c(c1-c1nc3ccccc3s1)CCN(C(C)=O)C2,-6%,-16%,/,-5%,11%,/,/,?
Cc1ccc(C(=O)N2CCN(c3ccccn3)CC2)cc1Cl,2%,/,-18%[46.1 µM],-15%[46.1 µM],-13%,-18%,2%,/
COc1ccc(OC)c(NC(=O)Nc2cc(C(=O)O)ccc2C)c1,2%,/,6%,7%[46.1 µM],/,-16%,-2%,/
Cc1ccc(CNC(=O)CCCC(=O)c2ccccc2)cc1,2%,/,2%[46.1 µM],12%[46.1 µM],-3%,-5%,-7%,/
O=c1[nH]n(-c2ccc(Cl)cc2)c2ncccc12,-24%,0.0%,17%,-4%,-121%,-28%,33%[activator],-13%
CC(=O)NC(Cc1ccccc1)C(=O)Oc1ccc2ccccc2c1 (stereo not given),/,/,-1%[46.1 µM],?,/,-12%,14%,/
COc1ccc(/C=N/NC(=O)CCc2n[nH]c(=O)[nH]c2=O)cc1O,4%,2.1%,-10%,18%,5%,3%,-22%,9%
COc1ccccc1C(=O)Nc1nc(N)n(-c2ccccc2)n1,1%,4.7%,16%,10%,2%,-5%,12%,3%
CCCc1nnc(NC(=O)NCCN2C(=O)C3C4C=CC(C4)C3C2=O)s1 (stereo not given),24%,0.1%,0%,3%,5%,3%,-9%,11%
Nc1cccc(C(=O)Nc2ccc3nc(-c4cccnc4)[nH]c3c2)c1,10%,-7.5%,-9%&3%,?,?,20%,?,-6%
Cc1n[nH]c(=O)c2c(NC(=O)COC(=O)Cc3ccc(Cl)cc3Cl)oc(C)c12,-7%,/,-1%,6%,/,7%,-13%,/
Cc1nn(C)c(C)c1NS(=O)(=O)c1ccc(Cl)cc1,-10%,/,2%,5%,/,-4%,-17%,/
CC1Cc2cc(S(=O)(=O)NCc3ccccc3)ccc2N1C(=O)C1CC1 (stereo not given),3%,/,/,/,1%,12%,19%,/
Cc1c(C(=O)NCc2ccc3c(c2)OCO3)oc2ccc(Br)cc12,-27%,-5.1%,-5%,0%,-11%,-9%,-10%,-5%
CSCCC(NC(=O)c1cccc(C)c1)C(=O)OCC(=O)NC(=O)c1cccn1C (stereo not given),-22%,-11%,3%,2%,-9%,-15%,25%,6%
Cc1nn(C)cc1CN(C)C(=O)c1nn2c(c1Br)NC(c1cccs1)CC2C(F)(F)F (stereo not given),0%,/,-18%[46.1 µM],?,-4%,9%,-13%,/
O=C(Nc1cc(-c2nc3ccccc3o2)ccc1Cl)c1ccc(N2CCCCC2)c([N+](=O)[O-])c1,/,0.2%,0%[46.1 µM],?,/,/,50%[activator],-20%
CC(Sc1nnc2c(n1)[nH]c1ccccc12)C(=O)NC1CCCCC1 (stereo not given),1%,/,?,4.5µM*,0%,-4%,?,/
COc1cccc(NC=C2C(=O)OC3(CCCCC3)OC2=O)c1,-22%,-5.0%,-3%,2%,-152%,0%,15%,-19%

Later entries:
SMILES,SARS PLP yeast,Cruzain inh Det,LASV entry inh,Marburg entry inh,NS1 function inh,RE007 growth inh,2A StopGo,Cruzain noTriton
COC(=O)c1cncn1C(C)c1ccccc1 (stereo not given),2%,5.4%,-35%,8%,-13%,-13%,-10%,2%
Cc1nc(NC(=O)/C=C/c2ccc(F)cc2)sc1C(=O)N(C)C,12%,-9.0%,23%,7%,17%,-1%,29%,-19%
CCNC(=O)OCC(CC)NC(=O)OCC(C)C (stereo not given),-3%,1.2%,16%,18%,6%,-4%,-14%,-2%
FC(F)(F)c1cccc(-c2nnc3ccc(C(F)(F)F)cn23)c1,-2%,2.0%,?,-10%,-7%,1%,-23%,4%

Bioassay records deposited in PubChem BioAssay by National Center for Advancing Translational Sciences (NCATS).
